# Compound activity as filed in PubChem.
# Mtb MbtI inh: MbtI salicylate synthase inhibitors, primary screen, biochemical, fluorescence intensity; AID 493033, 2011; purified MbtI enzyme, fluorescence intensity read-out; inhibition, %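 (about 17 µg/mL by stock and volumes)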; P9WFX0; hit rate 0.89% among 100,000;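 active means above 50% in both replicates, above 80% if mildly self-fluorescent; inactive means the rest, strongly fluorescent compounds included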;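 further: 0% = mean of negative and 100% = mean of positive controls; one replicate is shown; some compounds called inactive have numbers as strong as hits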
# Target sequence (P9WFX0 whole entry, looked up): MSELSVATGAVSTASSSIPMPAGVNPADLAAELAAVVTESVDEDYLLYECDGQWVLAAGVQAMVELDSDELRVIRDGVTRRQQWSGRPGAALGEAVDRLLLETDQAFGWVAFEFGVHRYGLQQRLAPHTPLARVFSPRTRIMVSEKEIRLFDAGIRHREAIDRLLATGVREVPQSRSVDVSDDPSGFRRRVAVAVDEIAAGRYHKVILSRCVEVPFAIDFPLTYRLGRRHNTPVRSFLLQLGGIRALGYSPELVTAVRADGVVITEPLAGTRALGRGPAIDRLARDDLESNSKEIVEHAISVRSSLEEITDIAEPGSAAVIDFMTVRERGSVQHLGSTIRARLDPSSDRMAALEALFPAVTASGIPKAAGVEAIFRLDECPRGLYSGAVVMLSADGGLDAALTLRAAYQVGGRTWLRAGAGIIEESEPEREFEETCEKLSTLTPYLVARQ
# Mtb MenB inh: M. tuberculosis MenB inhibitors, primary screen, biochemical, absorbance; MenB enzyme assay, absorbance read-out; some hits fall short of the stated cut; inhibition, %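 (about 12 µg/mL by stock and volumes)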; hit rate 0.43% among 100,000; AID 540299, 2011;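 active means mean of two replicates above 30%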;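 further: 0% = no compound and 100% = wells with inactive enzyme; the first replicate is given; strong numbers were not always called active; inactives centre near -10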
# Polio RdRp inh: poliovirus RdRp elongation inhibitors, primary screen, biochemical, fluorescence polarization, total intensity; % elongation, % (compound at 16.7 µg/mL); poliovirus polymerase elongation; hits give low values; AID 588519, 2011; Genome polyprotein (Poliovirus type 1 (strain Mahoney)), P03300; hit rate 0.66% among 150,000; in the data active means % elongation below about 90%; further: some results filed as inactive read as strong as hits
# Target sequence (P03300 1749-2209 limits assumed): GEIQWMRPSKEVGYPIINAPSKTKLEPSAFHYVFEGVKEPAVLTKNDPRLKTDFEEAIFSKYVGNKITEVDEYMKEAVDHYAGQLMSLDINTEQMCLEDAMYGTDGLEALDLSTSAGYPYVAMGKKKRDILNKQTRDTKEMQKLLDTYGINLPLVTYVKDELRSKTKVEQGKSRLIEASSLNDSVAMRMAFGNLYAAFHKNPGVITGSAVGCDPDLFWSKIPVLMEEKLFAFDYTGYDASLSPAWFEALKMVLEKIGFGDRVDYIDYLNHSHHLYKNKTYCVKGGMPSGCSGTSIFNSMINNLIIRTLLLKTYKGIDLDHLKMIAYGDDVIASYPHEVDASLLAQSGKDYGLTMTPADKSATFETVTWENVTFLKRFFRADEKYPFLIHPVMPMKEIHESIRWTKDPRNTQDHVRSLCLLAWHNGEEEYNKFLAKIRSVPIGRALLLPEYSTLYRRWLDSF
# Polio RdRp inh intensity: also measured in Polio RdRp inh; calls as there; % elongation; measured here: total intensity read-out; formula for this scale not given here;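 total fluorescence in place of polarization; lower means less elongation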
# Starred values were filed as active, the others as inactive; i = inactive; . = not tested or not shown.
SMILES,Mtb MbtI inh,Mtb MenB inh,Polio RdRp inh,Polio RdRp inh intensity
COC(=O)c1cnn(-c2ccccc2)c1C=Nc1ccc(C)cc1,-5,-23,101,94
Cc1ccc(C(=O)NCC(=O)OCc2ccc(Cl)c(Cl)c2)cc1,-1,.,99,100
CCc1ccc2[nH]c(=O)c(CNCCO)cc2c1,10,-34,102,102
NC(=O)NC1CCS(=O)(=O)C1 (configuration not stated),-4,-48,103,102
CC(C)c1ccc(C=C2C(=O)NC(=O)NC2=O)cc1,6,-7,77*,73*
COc1ccc(CCn2c(C)cc(C(=O)CSc3nnnn3-c3ccccc3)c2C)cc1,-13,-10,99,105
CC(C)C(C)(C#N)NC(=O)CSc1nnc(-c2cccc(S(=O)(=O)N3CCOCC3)c2)n1-c1ccc(F)cc1 (configuration not stated),-6,-26,104,104
O=C(CSc1nnc2[nH]c(=O)ccn12)NCc1ccc2c(c1)OCO2,4,0,102,100
CCOc1ccc(-c2cc(C(=O)OC)on2)cc1,14,-50,103,101
C=CCN(CC=C)C(=O)COc1ccc(Cl)cc1Cl,-10,3,99,101
O=C(COc1ccccc1)NCC(=O)N1CCCC1,-7,-19,102,101
c1ccc(N2CCN(c3nc4ccccc4[nH]3)CC2)nc1,1,-10,98,101
FC(F)(F)c1nc(Sc2nnc(C3CC3)o2)c2ccccc2n1,5,7,98,97
CCOC(=O)N1CCN(C(=O)C(NC(=O)c2ccc(C34CC5CC(CC(C5)C3)C4)cc2)C(C)C)CC1 (configuration not stated),17,1,100,94
CCCCN1C2=NC(=O)CN2c2ccccc21,13,-8,101,103
O=S(=O)(NCCc1csc(-c2ccccc2)n1)c1ccccc1,2,-19,102,102
CCC(CO)Nc1ncnc2onc(-c3ccc(F)cc3)c12 (configuration not stated),-8,-26,105,101
COCC(C)N=C1NC(=O)C(CC(=O)Nc2cc(C)c(Cl)cc2OC)S1 (configuration not stated),4,5,103,100
NC(=O)C1CCN(Cc2nc3cc(Cl)ccc3c(=O)[nH]2)CC1,-6,-5,121,130
CCOC(=O)C1=C(S)N(C#N)C(=O)C(C#N)C12CCNCC2 (configuration not stated),.,-17,120,126
CCOC(=O)N1CCN(Cc2ccccn2)CC1,4,-7,100,103
CCOCC(=O)Nc1cc(Cl)c(NC(=O)COCC)c(Cl)c1,-12,.,102,104
CCOC(=O)c1ccc(NC(=O)c2cc3c(s2)CCC3)cc1,3,.,102,103
CN(C)S(=O)(=O)N1CCN(Cc2ccccc2)CC1,-11,-13,102,99
Cc1nn(C)c(C)c1Sc1ccc(Br)cc1,-2,9,102,102
CCN(CC)C1=CC2=CC(=C(C#N)C#N)CCC2CC1 (configuration not stated),1,-35,45,240
CC(C)C(NS(=O)(=O)c1ccc2c(c1)OCCO2)C(=O)OCc1nnc(-c2ccccc2)o1 (configuration not stated),4,2,106,110
Cn1c(=NC(=O)COc2ccccc2)sc2cccc(F)c21,2,-14,99,99
N#Cc1c(-c2ccccc2)cc(-c2ccccc2)c(C#N)c1N,.,-36,105,111
CCCCn1c(NN)nc2sc3c(c2c1=O)CCCC3,-7,-32,105,106
CC(C)(C)NC(=O)Cn1nnc(-c2ccc(S(C)(=O)=O)cc2)n1,.,-5,103,106
Cc1nccn1C(C)CC(=O)O (configuration not stated),.,-10,109,114
Cc1cc(C)c(C#N)c(SCC(=O)NC2CCCCC2)n1,.,2,105,99
CS(=O)(=O)c1ccccc1C(=O)Nc1ccc(C#N)cc1,-19,8,102,113
CCCCNC(=O)c1cn(C)c2ccc(S(=O)(=O)N(CC)CC)cc2c1=O,-3,2,100,104
c1ccc2c(c1)NC(c1ccc3c(c1)OCO3)S2 (configuration not stated),113,12,102,97
Cn1c(N)c(C(=O)COC(=O)C2CCN(S(=O)(=O)c3cccs3)CC2)c(=O)n(C)c1=O,-7,-8,100,107
C(=N\N=C\c1cccs1)/c1cccs1,-6,-13,104,105
CCOC(=O)C1CCCN(C(=O)c2cc(-c3ccco3)nc3ccccc23)C1 (configuration not stated),104,-21,98,105
CCOC(=O)N1CCN(S(=O)(=O)c2ccc(F)c(C(=O)Nc3ccc(C(F)(F)F)cc3)c2)CC1,-20,-21,101,102
Cn1c(=N)n(CCOc2ccccc2Cl)c2ccccc21,4,7,105,99
CCOc1ccc(NC(=O)c2c[nH]n3c(=O)cc(C4CCN(C(=O)OC(C)(C)C)CC4)nc23)cc1,-5,14,99,102
O=C(O)C1CCCN1C(=O)c1cncc(Br)c1 (configuration not stated),-10,-1,102,102
O=C(CCCCl)Nc1ccccc1Cl,-3,.,101,100
CCN1CCc2c(sc3nc(=S)[nH]c(N)c23)C1,90,-147,102,100
COc1ccc2nc(NC(=O)CCNS(=O)(=O)c3cccc4nsnc34)sc2c1,4,-3,99,100
Cc1csc2nc(CCNC(=O)c3cccs3)cn12,-5,-8,102,108
O=C(O)c1ccccc1Oc1ccccc1,-4,-18,103,102
O=C(O)CCCC(=O)Nc1cccc2cccnc12,3,-2,101,103
O=C(Cn1nnc(COc2ccccc2)n1)Nc1cccc(C(=O)NC2CC2)c1,4,-18,97,92

# Entries of single compounds as entered above.
# Profile of CCOc1ccc(NC(=O)c2c[nH]n3c(=O)cc(C4CCN(C(=O)OC(C)(C)C)CC4)nc23)cc1 = Mtb MbtI inh = -5; Mtb MenB inh = 14; Polio RdRp inh = 99; Polio RdRp inh intensity = 102
# Profile of O=C(O)CCCC(=O)Nc1cccc2cccnc12 = Mtb MbtI inh = 3; Mtb MenB inh = -2; Polio RdRp inh = 101; Polio RdRp inh intensity = 103

# (next part)
SMILES,Mtb MbtI inh,Mtb MenB inh,Polio RdRp inh,Polio RdRp inh intensity
Cc1oc(CC(C)C)cc1C(=O)N1CCN(C(=O)c2cc(CC(C)C)oc2C)CC1,-14,-6,99,101
Cc1ccc(C(=O)CC(c2ccccc2)C(C#N)C#N)cc1 (configuration not stated),.,-10,98,93
CCn1c(=O)c(=O)[nH]c2cc(C(=O)Nc3ccccc3N3CCOCC3)ccc21,-15,7,100,99
Cn1c(-c2cc3ccc(O)c(CN4CCCCCC4)c3oc2=O)nc2ccccc21,27,-208,95,112
O=C(/C=C/c1ccc(Br)o1)Nc1nccs1,-3,.,99,97
Cc1nn(-c2ccccc2)c(Oc2ccc(F)cc2)c1/C=N/NC(N)=O,6,-20,100,105
Cn1nc(CC(=O)Nc2ccc3c(c2)CCC3)c2ccccc2c1=O,6,22,101,101
CN(C)CCNc1nsc2ccccc12,99,-31,.,.
N#CC1=C(N)N(c2ccccc2)NC1(C(F)(F)F)C(F)(F)F,.,0,107,108
NC1=[N+](c2ccccc2)Cc2ccccc21,-8,.,100,106
NC(=O)N1CCCC1=O,-6,-32,103,104
CC(C)NC(=O)C1CCC(=O)N1Cc1ccccc1Cl (configuration not stated),-3,5,103,107
CC(=O)Nc1ccccc1C(=O)OCc1ccccc1F,-89,-2,101,105
Cc1[nH]c2ccccc2c1C(=O)CSc1ncccn1,8,1,105,110
O=C(O)C12CCCC(Br)(CCC1)C2,-15,.,100,107
COc1ccc(NC(=O)c2cccc3c2C(=O)N(C2CCCCC2)C3)cc1,10,-14,100,100
CCNc1nc(NCC)nc(N2n3c(nc4sc5c(c4c3=O)CCCC5)SCC2(O)c2ccc(OC)cc2)n1 (configuration not stated),34,-34,99,99
O=C(CSc1ccccc1C(=O)O)NCC1CCCCC1,-6,4,100,105
CCN(C(=O)CSc1ccccn1)C1CCCCC1,48,.,101,103
CCOC(=O)NN=C1CCC(c2ccccc2)CC1 (configuration not stated),-8,-6,101,101
NC(=O)c1cc2c(ccc3ccccc32)o1,77,-15,103,105
O=S1(=O)CCC(N=Cc2ccc(-c3ccc(Cl)cc3)o2)C1 (configuration not stated),.,-2,105,107
CCCNC(=O)c1ccc(COc2ccc(C(C)(C)C)cc2)o1,-4,-17,101,101
COc1ccc(OC)c(CNC(=O)C2CCCN(c3nc4ccccc4o3)C2)c1 (configuration not stated),14,-6,100,101
CCOC(=O)c1cccc(NC(=O)n2ncc3cc(Cl)ccc32)c1,-12,20,101,97
CCn1cc(/C=C(\NC(=O)c2ccco2)C(=O)N2CCc3ccccc32)c2ccccc21,0,9,99,99
CC(=O)Nc1ccc(-c2nc(-c3ccco3)c(-c3ccco3)[nH]2)cc1,97,-40,.,.
COc1cccc(-c2nnc(SCC(=O)N3c4ccccc4Sc4ccccc43)o2)c1,1,-30,104,102
CCOc1ccccc1-n1c(SCC(=O)NCc2ccco2)nc2ccccc2c1=O,5,-6,101,105
O=C(NCCc1ccc(C(F)(F)F)cc1)C1CC(=O)N(c2ccc3c(c2)OCCO3)C1 (configuration not stated),-10,-10,105,106
COc1ccc(OC)c(CNCCCO)c1,8,2,102,103
COc1ccc(CCn2c(=O)c3cccnc3n(CC(=O)NCc3ccc(C)cc3)c2=O)cc1OC,-9,1,102,103
O=C1CC(c2cccc(O)c2)Nc2ccc3ccccc3c21 (configuration not stated),-38,-16,99,99
Oc1[nH]c(=S)sc1C=Nc1ccccc1,42,i,107,106
CCOc1ccccc1NC(=O)CSc1ccccc1Cl,9,.,103,106
Cc1ccc2c(c1)c1c3n2CCN(CC(O)CN2CCCC2)C3CCC1 (configuration not stated),.,1,97,104
CCOC(=O)N1CCN(C(=O)CSc2nnc3[nH]c(=O)cc(-c4ccccc4)n23)CC1,-48,-5,101,96
O=C(O)NC(=O)c1ccccc1,16,-6,107,103
COc1ccc(-c2noc(CCCCCNC3CCSC3)n2)cc1 (configuration not stated),0,5,95,100
Cc1nn2c3ccccc3nc2n(Cc2ccccc2)c1=O,-12,-14,100,100
Cc1n[nH]c(C)c1Sc1ccccc1NC(=O)c1ccc(F)cc1,-13,.,102,105
O=c1c(=O)n2c(nn1CN1CCOCC1)sc1ccccc12,189,-27,109,101
CC1CCC(NCCc2ccc3c(c2)OCO3)CC1 (configuration not stated),-3,-12,101,102
CCn1c(SCC(=O)Nc2nc(C)cs2)nnc1C(C)Oc1ccccc1 (configuration not stated),-6,-47,102,101
CC1=CC(C)(C)SC(N)=N1,-6,-51,103,99
CCn1c2ccccc2c2cc(NC(=O)C3SC(=Nc4ccc(Cl)cc4)C(C(=O)NCc4ccco4)=C3N)ccc21 (configuration not stated),0,-12,104,106
COc1ccccc1OCCNC(=O)c1ccc2c3c(cccc13)CC2,.,5,103,111
CN1C/C(=C/c2cccnc2)C(=O)/C(=C/c2cccnc2)C1,21,-28,103,100
CCOC(=O)c1c(C)[nH]c(C)c1S(=O)(=O)N1CCc2ccccc21,-8,-40,106,100
CC(C)(CNC(=O)c1cn(-c2ccccc2)nc1-c1ccccc1)N1CCOCC1,-8,5,99,105
# New compounds follow.
SMILES,Mtb MbtI inh,Mtb MenB inh,Polio RdRp inh,Polio RdRp inh intensity
O=C(CSc1ncnc2sc(-c3ccccc3)cc12)c1ccc2c(c1)OCCO2,2,-13,101,108
O=C(OCC(F)(F)C(F)F)c1ccc(C(=O)OCC(F)(F)C(F)F)cc1,-2,-21,99,98
CC1=C(c2ccc(C)cc2)S(=O)(=O)N=C1N1CCCCC1C (configuration not stated),19,-3,100,100
Cc1cc(Oc2ccc3oc4ccccc4c3c2)n2ncnc2n1,-1,3,99,105
O=C(O)c1ccc(=O)n(CCOc2ccccc2)n1,-4,-11,104,107
Cc1ccc(-n2cnc3ccccc3c2=O)cc1C,-2,-47,102,103
CC1(C)Cc2c(sc(N)c2C(=O)O)CO1,95,-31,101,100
CN(Cc1ccccc1)C(=O)c1cn(C)c2ccc(S(=O)(=O)N3CCCC3)cc2c1=O,-5,7,100,103
O=c1[nH]c2nc3ccccc3n2c2ncccc12,8,-1,98,105
CCOc1ccccc1OCC(=O)N(C)Cc1ccc2c(c1)OCCO2,-4,4,105,112
COc1ccc(-c2n[nH]c(=S)n2Cc2ccccc2)cc1OC,-84,1,102,101
O=C(Cc1ccc(Cl)cc1)NC1=NCCS1,1,-3,99,93
Cc1ccccc1C1C=C(c2ccc(F)cc2)Nc2ncnn21 (configuration not stated),-6,8,100,101
C=CC[C@H]1Cc2ccccc2[C@H](CC=C)N1,4,-5,103,104
O=c1cc(-c2ccccc2)oc2cc(Cl)cc(Cl)c12,-13,13,109,118
C/C(=N\O)c1cc(-c2ccccc2)c(C(F)(F)F)s1,3,-21,106,115
CNC(=O)NC(=O)CN1CCCc2cc(C)ccc21,-5,-3,104,116
COc1ccc(/C(COc2ccccc2O)=N\O)cc1,-5,-22,96,106

# In the list so far, these contain a COOH group:
SMILES,Mtb MbtI inh,Mtb MenB inh,Polio RdRp inh,Polio RdRp inh intensity
Cc1nccn1C(C)CC(=O)O (configuration not stated),.,-10,109,114
O=C(O)C1CCCN1C(=O)c1cncc(Br)c1 (configuration not stated),-10,-1,102,102
O=C(O)c1ccccc1Oc1ccccc1,-4,-18,103,102
O=C(O)CCCC(=O)Nc1cccc2cccnc12,3,-2,101,103
O=C(O)C12CCCC(Br)(CCC1)C2,-15,.,100,107
O=C(CSc1ccccc1C(=O)O)NCC1CCCCC1,-6,4,100,105
O=C(O)c1ccc(=O)n(CCOc2ccccc2)n1,-4,-11,104,107
CC1(C)Cc2c(sc(N)c2C(=O)O)CO1,95,-31,101,100

# Hits appear at their usual frequency; any-hit rate near 1.7%.
